Source: PubChem BioAssay
Env fusion inh = blocks HIV Env-driven cell-cell fusion; inhibition, % at 12.3 µM; AID 651610; 1.1% of 360,000 active; HeLa-JRFL Env/CEM21 cell fusion, luciferase;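 active means mean replicate inhibition score of at least 50 and every replicate individually at or above 50; inconclusive means only one of the two criteria met; inactive means mean below 50 and not all replicates reaching 50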;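 further: 0% = plate neutral controls and 100% = maraviroc near 300 nM; one replicate is shown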
CSC inhib = blocks cancer stem cells; 1.1% of 300,000 active; cancer stem cell-like cells viability, luminescence; inhibition, % at 7.5 µM; AID 2717;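 active means mean at 75% or more and at least half the replicates too; inconclusive means mean and replicates disagree; tested in HMLE shEcad cells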;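 further: 0% = median of negative and 100% = median of positive control wells; the first replicate is given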
eIF4H inh = inhibitors of RNA binding by human eIF4H; Q15056; eIF4H fluorescence polarization binding assay; inhibition, % at 35 µM; 0.94% of 290,000 active;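 active means 50% or more with normal probe brightness, or confirmed in later tests; inconclusive means above 50% with abnormal brightness, or retests that disagree; inactive means below 50% or failed in later tests; about a fifth of its hits are not listed in these tables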;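 further: calls also rest on retests at 20 µM and on dose response follow-up; 0% = protein and probe with vehicle and 100% = probe without protein; strong numbers were not always called active; many hits fall short of the cut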
Rce1 inh = yeast Ras-converting enzyme inhibition; Q03530; yeast membranes, quenched prenylated peptide cleavage fluorescence; calls only; 0.27% of 290,000 active; AID 2563;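 active means fall in fluorescence gain of 50% or more versus controls, with final raw signal at or below 3038400; inconclusive means same 50% fall but final raw signal above 3038400; inactive means fall in fluorescence gain under 50%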;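 further: plate controls were neutral control wells for no effect and wells lacking membranes for full effect; tested at 10 µM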
Target sequence (Q03530 whole entry, looked up): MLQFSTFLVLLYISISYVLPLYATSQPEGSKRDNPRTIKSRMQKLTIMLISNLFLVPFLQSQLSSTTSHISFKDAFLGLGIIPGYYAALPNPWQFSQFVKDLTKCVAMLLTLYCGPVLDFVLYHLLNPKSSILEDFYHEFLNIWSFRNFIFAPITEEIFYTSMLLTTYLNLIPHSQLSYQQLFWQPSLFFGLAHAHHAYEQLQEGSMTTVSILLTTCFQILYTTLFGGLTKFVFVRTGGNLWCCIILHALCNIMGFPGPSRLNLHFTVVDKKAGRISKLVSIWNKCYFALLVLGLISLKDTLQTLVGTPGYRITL
PABP FP inh = blocks human PABP binding to poly(A) RNA. P11940. fluorescence polarization. inhibition, % at 35 µM. 1% of 290,000 active. AID 2014;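 active means 50% or more with normal probe brightness, or confirmed in later tests; inconclusive means above 50% with abnormal brightness, or retests that disagree; inactive means below 50% or failed in later tests; about a fifth of its hits are not listed in these tables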;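 further: calls also rest on retests at 20 µM and on dose response follow-up; controls were probe without protein and protein plus probe with vehicle; some compounds called inactive have numbers as strong as hits; many hits fall short of the cut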
Target sequence (P11940 whole entry, looked up): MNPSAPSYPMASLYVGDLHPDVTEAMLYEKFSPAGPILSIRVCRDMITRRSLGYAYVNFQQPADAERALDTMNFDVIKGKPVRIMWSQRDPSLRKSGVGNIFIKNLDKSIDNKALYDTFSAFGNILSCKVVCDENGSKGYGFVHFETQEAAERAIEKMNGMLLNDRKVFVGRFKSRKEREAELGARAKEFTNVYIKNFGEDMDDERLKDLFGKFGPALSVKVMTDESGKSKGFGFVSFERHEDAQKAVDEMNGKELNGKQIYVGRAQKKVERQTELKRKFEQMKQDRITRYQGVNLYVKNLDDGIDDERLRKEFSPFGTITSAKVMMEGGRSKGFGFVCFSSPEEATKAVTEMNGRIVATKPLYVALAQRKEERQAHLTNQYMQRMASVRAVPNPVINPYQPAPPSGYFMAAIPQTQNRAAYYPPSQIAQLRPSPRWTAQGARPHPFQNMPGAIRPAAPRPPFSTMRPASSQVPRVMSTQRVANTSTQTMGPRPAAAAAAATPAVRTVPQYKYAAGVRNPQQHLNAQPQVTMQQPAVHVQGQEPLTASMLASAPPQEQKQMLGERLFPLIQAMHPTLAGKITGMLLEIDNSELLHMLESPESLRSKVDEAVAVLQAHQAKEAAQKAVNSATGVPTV
UUG fidelity = modulators of start codon recognition fidelity in yeast; S. cerevisiae UUG-firefly luciferase reporter, luminescence/redox ratio; activity score, % at 18.7 µM; 0.13% of 350,000 active; AID 602363;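 active means replicate mean at a twofold rise or more, about +100% in these data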;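 further: firefly luciferase made from a UUG start codon reports start codon fidelity; reporter light over untreated wells divided by growth signal over untreated wells; some hits fall short of that in this replicate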
MT1-MMP act inh = blocks activation of human MT1-MMP; HT1080 RFP-PRO-GFP cells, GFP/RFP ratio fluorescence, overnight; percent of plate control window, DMSO zero; GFP/RFP ratio change, % at 20 µM; 0.061% of 360,000 active;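 active means GFP/RFP ratio change of at least 30% with cell ATP level not reduced by more than half and red fluorescence within 50% of control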; further: strong numbers were not always called active
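Material – HT1080 RFP-PRO-GFP cells · Control set – DMSO wells and RFP-L50D-GFP cells · Incubation – overnight cell settling, then overnight compound exposure, 37 °C, 5% CO2 · Compound dosing – single-point 20 µM compound, 1% DMSO · Read-out – GFP/RFP fluorescence ratio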
MT1-MMP act inh RFP = further read-out of MT1-MMP act inh, marked with its call; RFP signal change, %; measured here: RFP expression control read;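 0 = vehicle wells; hits needed this value within 50% of zero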
* = called active by the depositor; i = inactive; ? = inconclusive; nt = not tested or not shown.

Under each structure: Env fusion inh	CSC inhib	eIF4H inh	Rce1 inh	PABP FP inh	UUG fidelity	MT1-MMP act inh	MT1-MMP act inh RFP
> O=C(O)CCC(=O)Nc1cccc2cccnc12
  3	-8	9	i	-12	nt	0	3
> Cc1noc(C(F)(F)F)c1C(=O)NNC(=O)c1cccc(C(F)(F)F)c1
  16	1	-3	i	-3	nt	2	3
> O=C(NCc1ccc2c(c1)OCO2)c1ccc(NS(=O)(=O)c2ccc3c(c2)OCCO3)cc1
  -93	0	4	i	-4	-6	-4	-9
> O=C(NC1CCN(S(=O)(=O)c2ccccc2)CC1)c1ccc(F)cc1
  -5	11	-5	i	-7	-5	1	2
> Cc1ccc(NC(=O)CSCC(=O)Nc2ccccc2C(=O)N2CCCCC2)cc1
  3	-1	nt	i	nt	nt	1	0
> C[C@H]1COC(=O)[C@H](CC(=O)OC(C)(C)C)C/C=C\C[C@@H](CC(=O)N[C@@H](CO)Cc2ccccc2)C(=O)N1
  -50	-7	nt	nt	nt	27	-1	5
> COc1ccccc1CNC(=O)Nc1nc(C(N)CCc2ccccc2)cs1 (stereo not drawn)
  28	nt	nt	nt	nt	-20	1	-5
> CCCCn1c(N)c(N(CCOC)C(=O)C2CCN(C(=O)c3ccc(Cl)cc3)CC2)c(=O)[nH]c1=O
  -1	3	nt	i	nt	-6	nt	nt
> CNS(=O)(=O)c1ccc2c3c(cccc13)C(=O)N2
  13	nt	4	i	-3	-13	-4	0
> COc1ccc(C)cc1S(=O)(=O)N1CCc2ccccc2C1
  6	-1	5	nt	-4	2	2	6
> COc1ccc(CC(=O)Nc2c3c(nn2C(C)(C)C)CS(=O)C3)cc1 (stereo not drawn)
  10	3	-5	i	-5	-37	0	1
> C[C@H](CO)N1C[C@H](C)[C@@H](CN(C)C(=O)Nc2ccc(C(F)(F)F)cc2)Oc2c(NS(=O)(=O)c3ccccc3)cccc2C1=O
  2	nt	nt	nt	nt	3	1	3
> CCc1noc(C)c1C(=O)NC1CCCc2c1cnn2-c1ccc(C(C)(C)C)cc1 (stereo not drawn)
  4	-15	-1	i	-8	-14	-5	-7
> COC(=O)c1ccccc1N/C=C/C(=O)c1ccc(Br)cc1
  nt	15	-8	i	-9	-12	-3	-1
> CN1C(=O)N(C)C(c2ccccc2Cl)C2=C1CC(C)(C)CC2=O (stereo not drawn)
  13	0	1	i	17	nt	1	3
> Cc1ccc(-c2nc(NCCN(C)C)c3ccccc3n2)cc1
  10	1	-16	i	-1	-6	-4	0
> CSc1ccc(/C=N/NC(=O)c2cccs2)cc1
  -231	10	-3	i	-9	-16	4	2
> CCOC(=O)C[C@H]1c2cc(F)ccc2S(=O)(=O)N1c1cccc(OC)c1
  -7	-6	nt	i	nt	21	2	-8
> CCOc1nc(C)cc(C)c1S(=O)(=O)c1cccc(Cl)c1
  15	-6	-4	i	2	-12	3	0
> CC(C)(Oc1ccc(Cl)cc1)C(=O)OCC(=O)Nc1ncc(Cl)cc1Cl
  -56	-9	2	i	-3	13	-6	0

Some entries already given, limited to MT1-MMP act inh RFP:
structure	MT1-MMP act inh RFP
O=C(NC1CCN(S(=O)(=O)c2ccccc2)CC1)c1ccc(F)cc1	2
CN1C(=O)N(C)C(c2ccccc2Cl)C2=C1CC(C)(C)CC2=O (stereo not drawn)	3
O=C(O)CCC(=O)Nc1cccc2cccnc12	3

A different layout for part of the listing above:
smiles,Env fusion inh,CSC inhib,eIF4H inh,Rce1 inh,PABP FP inh,UUG fidelity,MT1-MMP act inh,MT1-MMP act inh RFP
CN1C(=O)N(C)C(c2ccccc2Cl)C2=C1CC(C)(C)CC2=O (stereo not drawn),13,0,1,i,17,nt,1,3
COc1ccc(C)cc1S(=O)(=O)N1CCc2ccccc2C1,6,-1,5,nt,-4,2,2,6
CCCCn1c(N)c(N(CCOC)C(=O)C2CCN(C(=O)c3ccc(Cl)cc3)CC2)c(=O)[nH]c1=O,-1,3,nt,i,nt,-6,nt,nt
O=C(O)CCC(=O)Nc1cccc2cccnc12,3,-8,9,i,-12,nt,0,3
O=C(NCc1ccc2c(c1)OCO2)c1ccc(NS(=O)(=O)c2ccc3c(c2)OCCO3)cc1,-93,0,4,i,-4,-6,-4,-9
COc1ccccc1CNC(=O)Nc1nc(C(N)CCc2ccccc2)cs1 (stereo not drawn),28,nt,nt,nt,nt,-20,1,-5

Later entries:
Under each structure: Env fusion inh	CSC inhib	eIF4H inh	Rce1 inh	PABP FP inh	UUG fidelity	MT1-MMP act inh	MT1-MMP act inh RFP
> C/C(CCc1ccc2c(c1)OCO2)=N\NC(=S)NC(C)C
  0	-15	2	i	24	-32	2	1
> CCC(C)C(NC(=O)C1CCC(C)CC1)C(=O)Nc1ccc(OC)cc1OC (stereo not drawn)
  -2	-6	9	i	-4	-13	-3	-5
> CC(=O)c1ccc(OCC(O)COc2ccc(C(C)=O)cc2)cc1
  -65	-1	-12	i	-6	-11	-3	1
> COc1ccc(NC(C)=O)cc1CP(=O)(c1ccccc1)c1ccccc1
  -57	-15	-10	i	7	-4	0	2
> CCOC(=O)N1CCC(NC(=O)C2=CCN(S(=O)(=O)c3ccccc3)CC2)CC1
  -19	nt	-4	i	10	nt	7	-3
> COC(=O)c1ccc(CN2CCCCC2)cc1
  8	-9	9	i	-2	-11	0	7
> Cc1ccc2[nH]c(=O)c(CN(CC3CCCO3)S(=O)(=O)c3c(C)ccc4nsnc34)cc2c1 (stereo not drawn)
  15	10	-4	i	2	nt	-1	-3
> COc1cc(C2CC(=O)c3cnc(N4CCN(Cc5ccccc5)CC4)nc3C2)cc(OC)c1OC (stereo not drawn)
  13	53	2	i	-2	nt	-4	-15
> COc1ccc(NC(=O)c2cc(-c3cccc(OC)c3)on2)cc1
  -12	-3	-3	i	2	nt	1	-2
> CC(CCc1ccccc1)NC(=O)C(C)OC(=O)c1ccco1 (stereo not drawn)
  -9	29	nt	i	nt	-2	2	-2
> CN(CC(=O)NNC(=O)CNC(=O)c1cccs1)S(=O)(=O)c1ccc(Cl)cc1
  -25	-10	nt	i	nt	nt	0	0
> COc1ccc(C=C2C=C(C(C)(C)C)C(=O)C(C(C)(C)C)=C2)cc1OC
  -115	?	-1	i	8	-11	3	-3
> Cc1ccc(NC(=O)NCC2CCN(Cc3cccc(Cl)c3)CC2)c(Cl)c1
  14	1	-5	i	-1	0	0	-3
> COc1ccc(-c2cn3c(C)c(C(=O)Nc4ccncc4)sc3n2)cc1
  -7	0	-10	i	-1	-3	2	-11
> CCCc1c(C)nc2c(Br)cccc2c1Cl
  6	nt	-4	i	-5	-7	0	5
> Cn1nccc1C(=O)Oc1cccc(/C=N/NC(=O)c2ccccc2O)c1
  -12	4	-9	i	-6	nt	-1	-1
> O=S(=O)(NCCOc1cccc2cccnc12)c1ccc(F)cc1
  nt	0	-4	i	-10	-11	5	-3
> COC(=O)c1ccc(N=c2sc(C(=O)OC)cc(=O)n2C)cc1
  3	nt	-4	nt	1	1	-1	-8
> COc1cccc(N(C(=O)CCl)C(C(=O)NCCc2ccccc2)c2cccs2)c1 (stereo not drawn)
  65*	67	-10	i	-7	-11	-16	-27
> C=CCc1cccc(/C=N/NC(=O)C(=O)Nc2ccc(C)cc2)c1O
  -29	9	-1	i	-3	nt	3	0
> O=C(NCCN1C(=O)S/C(=C\c2ccccc2)C1=O)C1CCN(S(=O)(=O)c2cccs2)CC1
  nt	0	7	i	0	8	2	-3
> CCn1c(=O)c(C(=O)Nn2c(C)nc3ccccc3c2=O)c(O)c2ccccc21
  nt	19	-11	i	1	21	1	-3
> CSCC[C@H](NC(=O)Cc1c(C)c2cc3c4c(oc3cc2oc1=O)CCCC4)C(=O)O
  -5	-6	4	i	-4	-7	0	-1
> CN1CCN(CC#Cc2ccccc2)CC1CCO (stereo not drawn)
  -24	1	2	i	-2	1	-1	2
> CSc1ccc(/C=C/c2ccc3cccc(O)c3n2)cc1
  -130	61	13	i	4	nt	6	-1
> COc1ccc(NC(=O)C(c2cc3c(cc2[N+](=O)[O-])OCO3)N(C)Cc2ccccc2)cc1 (stereo not drawn)
  0	-11	4	i	-2	7	-6	-9
> CN(c1ccccc1)S(=O)(=O)c1nnc(NC(=O)c2ccco2)s1
  -13	-6	-3	i	7	-1	3	7
> O=C(OCC(=O)N(Cc1ccccc1)Cc1ccccc1)c1ccccc1O
  nt	-7	nt	nt	nt	-24	2	-1
> COCCNC(=S)NNC(=O)c1cc(-c2cccnc2)nc2ccccc12
  9	1	11	i	-6	-27	0	1
> COc1cccc(CN2CCNC(=O)C2CC(=O)NCc2cc(C(C)C)no2)c1 (stereo not drawn)
  20	-14	8	i	-2	-8	0	1
> COc1ccccc1CCC(=O)NNC(=O)Cn1nc(C)cc1C
  9	nt	nt	nt	nt	-10	2	5
> Cc1cc(-n2nc(C)cc2C)n2nc(C)c(-c3ccccc3)c2n1
  -14	-11	-3	i	7	-24	1	-2
> CCOC(=O)C1CCN(C(=S)Nc2cc(OC)c(OC)cc2C(=O)OC)CC1
  nt	nt	-2	i	-1	-18	13	64
> Oc1ccc(/C=N/Nc2ccc(C(F)(F)F)cn2)cc1
  -113	17	6	i	3	nt	-2	-10
> CC1CCN(c2c([N+](=O)[O-])c(=O)n(-c3ccccc3)c3ccccc23)CC1
  -98	-12	-5	i	-6	-9	-1	-1
> Cc1ccc(S(=O)(=O)N2CCC(C(=O)NNC(=O)C3CC3)CC2)cc1Cl
  -2	-10	-6	i	-5	-22	2	2
> CCCc1noc2c1/C(=N\O)CCC2
  -41	5	-8	i	-8	nt	0	2
> CN1CCN(c2nc(N3CCN(CCO)CC3)nc3ccccc23)CC1
  -83	-12	-3	i	18	-10	6	4
> COc1ccc(-n2c(Cn3c(=O)sc4ccccc43)nnc2SCC(=O)N2CCOCC2)cc1
  4	-10	-4	nt	28	-30	-2	-5
> COc1ccc(OCCC(=O)NC2=NCCS2)cc1
  -1	6	9	i	-6	-16	3	9
> Nc1n[nH]c2c1C1(CCCC1)Cc1ccccc1-2
  nt	-3	8	i	1	-25	-5	-3

An excerpt; count on the stated rates, not on these rows.
